# High-throughput results as filed in PubChem BioAssay.
# GLA inh pH 4.5 = blocks human alpha-galactosidase A at pH 4.5. P06280. purified enzyme, 4-MU-alpha-Gal fluorescence, pH 4.5. activity change, negative = inhibition, % at 105 µM. 230,000 tested, under 10 active. AID 1467; inconclusive = small, poorly fitted or top-dose-only inhibition, or a rising curve; inactive = flat fitted curve, though single readings scatter; no compound was filed as active;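 further: 0% = full activity with enzyme and -100% = basal without enzyme; dose as in the result columns while the protocol names 77 µM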
# Target sequence (P06280 whole entry, looked up): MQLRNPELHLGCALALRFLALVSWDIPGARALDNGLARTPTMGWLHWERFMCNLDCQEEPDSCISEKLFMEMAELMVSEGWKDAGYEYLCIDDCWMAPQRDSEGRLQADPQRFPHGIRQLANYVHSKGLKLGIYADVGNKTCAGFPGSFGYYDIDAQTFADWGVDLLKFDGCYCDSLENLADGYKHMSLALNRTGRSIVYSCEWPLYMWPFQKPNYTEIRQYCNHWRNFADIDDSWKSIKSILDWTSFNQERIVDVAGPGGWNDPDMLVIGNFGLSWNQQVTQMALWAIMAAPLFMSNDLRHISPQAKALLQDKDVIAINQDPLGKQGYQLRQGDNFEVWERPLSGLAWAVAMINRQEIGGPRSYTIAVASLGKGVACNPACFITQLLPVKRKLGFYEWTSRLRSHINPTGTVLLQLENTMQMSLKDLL
# Rango release inh = inhibition of RanGTP-driven Rango-importin beta dissociation; Potency, µM (titrated, usually from 46.1 µM), for inactives: at the highest dose activity change, negative = inhibition; Biochemical FRET Rango-importin beta, RanGTP-induced dissociation; 0.071% of 340,000 active; active means falling FRET ratio curve, often poorly fitted, with flat reads before Ran was added; inconclusive means other falling curves, or compound fluorescence or quenching; inactive means flat or rising ratio curve;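 further: potency means the concentration at half of the fitted maximal effect; % of control where 0% means no effect; nearly all actives have a fitted effect of over 45% in size; -100% = wells without RanGTP and RCC1; the record marks most hits as doubtful in a second field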
#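 FRET read at 45 min, room temperature: inhibitors block the CFP/YFP signal rise when RanGTP (0.6 uM Ran, 2 mM GTP, 0.2 uM RCC1) frees Rango (0.1 uM) from importin beta (0.25 uM). Pre-read after 5 min compound exposure flags interference.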
# miR-21 reporter = miR-21 reporter, rising signal; AID 2288; HeLa miR-21 FLuc reporter, luciferase, 48 h; Potency, µM (titrated, usually from 38.3 µM), inactives show at the highest dose reporter change, positive = more light; 340,000 tested, under 10 active; active = well fitted rising curve with a large enough effect; inconclusive = small, poorly fitted or top-dose-only effect; inactive = no such curve, though single readings can be large or run the other way;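 further: % of control where 0% means no effect; miR-21 action dims this reporter so a rising signal means less miR-21 action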
#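 HeLa cells endogenously expressing miR-21, stably carrying CMV-driven firefly luciferase with a downstream miR-21 binding site, 2000 cells/well. Titrations up to approximately 40 uM, 48 hours; luciferase luminescence read.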
# Rango-impB inh = prevents formation of the Rango-importin beta complex. Q14974. Rango CFP/YFP FRET sensor + importin beta, 45 min. Potency, µM (series often up to 92.2 µM), for the others: at the top dose inhibition of complex formation. 0.031% of 340,000 active. AID 540263; active = rising FRET ratio curve, often small or poorly fitted; inconclusive = mostly compound fluorescence or quenching in the first reads; inactive = flat curves in all reads;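 further: potency means the concentration at half of the fitted maximal effect; 0% = DMSO wells and 100% = buffer wells lacking importin beta; nearly all actives have a fitted effect of over 15% in size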
#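 Inhibition scored from the CFP 486 nm/YFP 530 nm FRET ratio 45 min after adding 0.125 microM importin beta to 50 nM Rango biosensor preincubated 5 min with compound (room temperature, PBS with DTT, Tween-20, BSA). No-importin wells as positive control.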
# Starred values were filed as active, the others as inactive; ? = inconclusive; . = no result given; & = joins results of further samples. A portion of the library; count on the stated rates, not on these rows.
# Screens in order: GLA inh pH 4.5	Rango release inh	miR-21 reporter	Rango-impB inh
O=C1CCc2cc(S(=O)(=O)NC(Cc3ccccc3)C(=O)NCCC3=CCCCC3)ccc2N1 (centres undefined)
  -2.0	-1.8%	6.6%	4.3%
COc1ccc(CNC(=O)COC(=O)c2c(-c3c(F)cccc3Cl)noc2C)cc1OC
  -7.8	6.2%	-9.6%	-0.7%
CC(=O)c1cccc(NC(=O)c2csc3c2CCCCC3)c1
  -3.1	-3.8%	-28.9%	-1.8%
COc1ccccc1/C=C/C(=O)NCC(=O)n1nc(C)cc1C
  6.6	1.1%	3.4%	0.0%
O=C1CC(C(=O)O)C(c2ccccc2)c2ccccc21 (centres undefined)
  .	7.7%	.	6.5%
Nc1ccc(C(=O)Oc2ccc([N+](=O)[O-])cc2)cc1
  -3.3	1.6%	-52.0%	-0.6%
C=C(C)Cn1c(SCC(=O)N/N=C/c2cccc(O)c2)nc2ccccc2c1=O
  -4.3	-1.7%	-1.4%	?
Cc1nnc(SCC(=O)Nc2ncc3c(n2)CCCC3=O)s1
  2.6	-3.7%	-5.3%	-1.2%
COc1ccc2c(c1)c1c(n2C(C)=O)C(OC(C)=O)=NCC1
  -6.6	15.8%	-2.7%	-2.2%
COc1ccccc1NS(=O)(=O)c1cc(NC(=O)COc2ccccc2F)ccc1N1CCOCC1
  .	-8.9%	.	-0.2%
Cn1c(CCN2CCCCC2)nc2cc(NS(=O)(=O)c3ccc(F)cc3)ccc21
  -5.3	-0.5%	19.5%	2.4%
CC(C)=CC(=O)Nc1ccccc1Br
  3.1	-14.1%	-4.1%	0.5%
O=C(Nc1nc(-c2ccc(Cl)cc2)cs1)NC1CCCCC1
  -0.2	17.2%	?	2.9%
S=C(NCCc1ccccc1)NCc1cccs1
  -1.7	1.9%	-50.8%	3.4%
CCCCOC(=O)c1[nH]c(C)c(C(=O)OC)c1C
  -19.2	0.8%	-57.7%	5.2%
CCOC(=O)N1CCN(C(=O)CS(=O)Cc2nc(-c3ccc(OC)c(OC)c3)oc2C)CC1 (centres undefined)
  .	-1.3%	-8.6%	2.1%
C[C@H](CO)N1C[C@H](C)[C@@H](CN(C)S(=O)(=O)c2ccc(Cl)cc2)Oc2ccc(NS(=O)(=O)c3ccccc3)cc2CC1=O
  .	-0.9%	.	-1.7%
CCOc1ccc(S(=O)(=O)NCC2CCCO2)c2cccnc12 (centres undefined)
  1.0	-19.4%	-6.4%	-3.0%
NCc1oc(-c2ccccc2)cc1C(=O)O
  -18.6	-21.0%	-2.7%	?
N#CCC(=O)N/N=C/c1cc(-c2ccccc2)n(-c2ccc(Cl)cc2)c1-c1ccccc1
  -11.2	0.3%	3.0%	-2.3%
CCOC(=O)c1cc(-c2ccccc2)sc1NC(=O)c1ccc(OC)c(OC)c1
  14.8	6.0%	-5.0%	11.7%
Cc1cc(OC(=O)c2cccs2)ccc1C(C)C
  2.3	0.9%	-3.5%	2.4%
CCOC(=O)c1c(NC(=O)c2ccc(N3CCOCC3)c([N+](=O)[O-])c2)sc(C)c1C
  2.4	.	-3.2%	.
O=C(NCC(c1cccs1)N1CCOCC1)c1cccc([N+](=O)[O-])c1 (centres undefined)
  -2.1	0.3%	22.2%	-1.0%
COc1ccccc1N1CCN(C(=O)c2cc3c(s2)-c2ccccc2OC3)CC1
  .	0.9%	0.5%&-2.1%	1.6%
CC(C)N(Cc1nnc(-c2ccccc2Br)o1)C(=O)c1cc(Cl)nc2ccccc12
  .	-1.4%	.	0.8%
O=C1c2ccccc2CCC12N=NCC2c1ccc(Cl)cc1 (centres undefined)
  3.0	0.2%	-17.1%	-1.9%
Cc1nc(N2CCN(C(=O)COc3ccccc3)CC2)c2c(C)c(C)sc2n1
  3.2	0.8%	?	-0.3%
CCOC(=O)CSc1nc2c(sc3ccccc32)c(=O)n1CCCN1CCOCC1
  -1.9	-3.4%	6.9%	-0.1%
COCCn1c(=S)[nH]c2cc(OC)c(OC)cc2c1=O
  -8.5	12.8%	-4.5%	3.1%
CCOC(=O)CC(=O)CSc1nccc(-c2cccnc2)n1
  -8.2	-12.7%	2.9%	?
CS(=O)(=O)N(CC(=O)Nc1cccc([N+](=O)[O-])c1)c1cccc(F)c1
  -5.8	15.9%	1.1%	0.1%
CC(NC(=O)c1ccc2c(c1)OCCO2)C(=O)O (centres undefined)
  -0.2	17.3%	-6.3%	6.4%
Cn1nnnc1SCC(=O)Nc1ccc(Cl)cc1Cl
  -2.2	.	-13.5%	.
Cc1cccc(C)c1NC(=O)CNC(=O)CCC(=O)c1cccs1
  -5.5	9.4%	-5.1%	?
COC(=O)c1cc(C(=O)NCc2ccccc2)c(=O)[nH]c1C
  -2.3	-0.3%	1.8%	1.2%
COc1cccc(N2CCN(CC(=O)Nc3ccc(SC(F)F)cc3)CC2)c1
  -8.5	0.3%	1.1%	5.0%
Clc1cccc(N/N=C/c2ccc(N3CCOCC3)s2)c1
  -7.5	1.4%	-30.4%	-5.3%
CCN(CC(=O)Nc1ccc(NC(C)=O)cc1)C(=O)CC1OC(=O)c2ccccc21 (centres undefined)
  .	22.5%	.	-2.3%
O=C(O)c1c[nH]ccc1=O
  1.3	8.2%	-4.4%	2.4%

# For convenience, two of the compounds above:
# Screens in order: GLA inh pH 4.5	Rango release inh	miR-21 reporter	Rango-impB inh
Cc1nc(N2CCN(C(=O)COc3ccccc3)CC2)c2c(C)c(C)sc2n1
  3.2	0.8%	?	-0.3%
CCOC(=O)CSc1nc2c(sc3ccccc32)c(=O)n1CCCN1CCOCC1
  -1.9	-3.4%	6.9%	-0.1%

# Copied from the list.
# CCOc1ccc(S(=O)(=O)NCC2CCCO2)c2cccnc12 (centres undefined) – GLA inh pH 4.5 = 1.0
# COc1ccc(CNC(=O)COC(=O)c2c(-c3c(F)cccc3Cl)noc2C)cc1OC – miR-21 reporter = -9.6%
# CCOC(=O)CSc1nc2c(sc3ccccc32)c(=O)n1CCCN1CCOCC1 – Rango release inh = -3.4%
# Cc1cccc(C)c1NC(=O)CNC(=O)CCC(=O)c1cccs1 – Rango release inh = 9.4%
# COCCn1c(=S)[nH]c2cc(OC)c(OC)cc2c1=O – Rango-impB inh = 3.1%
# COc1ccccc1NS(=O)(=O)c1cc(NC(=O)COc2ccccc2F)ccc1N1CCOCC1 – Rango release inh = -8.9%
# CCOC(=O)c1cc(-c2ccccc2)sc1NC(=O)c1ccc(OC)c(OC)c1 – miR-21 reporter = -5.0%

# (more compounds)
# Screens in order: GLA inh pH 4.5	Rango release inh	miR-21 reporter	Rango-impB inh
Cc1cc(NC(=O)CSc2nnc3c(C)cc4cc(C)c(C)cc4n23)no1
  -0.8	-0.9%	-4.8%	-2.5%
CC(C)(C)OC(=O)NCCCCCNC(=O)c1[nH]cnc1C(=O)Nc1nccs1
  .	-11.6%	.	-0.3%
COc1ccccc1C(=O)NC(C)c1ccccc1 (centres undefined)
  -9.8	13.8%	-5.0%	-1.1%
CCOC(CCn1c(SCc2ccc([N+](=O)[O-])cc2)nc2ccccc2c1=O)OCC
  -5.1	-12.2%	-7.3%	0.9%
O=C(Nc1ccc(F)c([N+](=O)[O-])c1)C1CCCO1 (centres undefined)
  .	-2.7%	.	0.3%
Cc1ccc(N(CC(=O)NC2CCCCC2)S(=O)(=O)c2c(C)noc2C)cc1
  .	21.6%	-1.8%	-0.5%
COc1ccc(S(=O)(=O)N2CCCCCC2)cc1C(=O)Nc1ccccn1
  .	-1.8%	-2.1%	0.6%
CCOC(=O)C1=C(C)NC(=O)NC1c1ccc(OCC(=O)Nc2ccccc2)c(OC)c1 (centres undefined)
  8.4	1.6%	-4.6%	-3.8%
O=C(Oc1ccc(F)c(F)c1)c1ccc2c(=O)n3c(nc2c1)CCC3
  .	-9.3%	.	2.2%
Cc1cccc(NC(=O)COC(=O)CCc2ccccc2)c1C
  .	-9.6%	7.2%	?
CCC(=O)/C=C1\Sc2ccccc2N1CC
  -7.8	1.2%	-14.9%	0.0%
Cc1cc(OC(=O)C(c2ccccc2)c2ccccc2)c([N+](=O)[O-])c(=O)[nH]1
  -2.7	-20.3%	-7.7%	5.7%
CC12CCC(C(=O)N(NC(=O)c3cc(Cl)ccc3O)C1=O)C2(C)C (centres undefined)
  13.6	-5.4%	-12.4%	-1.7%
COc1cc(NC(C)C(=O)N2CC(C)OC(C)C2)cc(OC)c1 (centres undefined)
  -13.5	5.8%	-2.5%	7.6%
O=S(=O)(c1ccc(Cl)c(NC(=S)N/N=C/c2ccc(O)cc2)c1)N1CCOCC1
  -4.6	-3.1%	-0.6%	-3.6%
Cc1cccnc1NC(=O)CSc1ncnc2sc(C)c(C)c12
  .	?	.	?
O=C(c1ccc2c(c1)N(Cc1ccccc1)CCS2)N1CCOCC1
  .	9.8%	1.1%	0.3%
Cc1ccc(NC(=O)CCn2cnc3cc(C)c(C)cc32)cc1
  -9.7	-1.9%	-3.7%	-3.2%
O=C(NCc1nc2ccccc2[nH]1)c1ccc([N+](=O)[O-])cc1
  3.1	37.2%	-8.8%	2.2%
COc1ccc2[nH]c(=O)c(CN(C(=O)c3cccnc3)c3ccccc3C)cc2c1
  0.4	26.6%	1.7%	?

# A different layout for some results above:
> Cc1cc(OC(=O)C(c2ccccc2)c2ccccc2)c([N+](=O)[O-])c(=O)[nH]1
  GLA inh pH 4.5: -2.7
  Rango release inh: -20.3%
  miR-21 reporter: -7.7%
  Rango-impB inh: 5.7%

> CC12CCC(C(=O)N(NC(=O)c3cc(Cl)ccc3O)C1=O)C2(C)C (centres undefined)
  GLA inh pH 4.5: 13.6
  Rango release inh: -5.4%
  miR-21 reporter: -12.4%
  Rango-impB inh: -1.7%

> COc1cc(NC(C)C(=O)N2CC(C)OC(C)C2)cc(OC)c1 (centres undefined)
  GLA inh pH 4.5: -13.5
  Rango release inh: 5.8%
  miR-21 reporter: -2.5%
  Rango-impB inh: 7.6%

# Four compounds from above, showing only GLA inh pH 4.5 and Rango-impB inh:
canonical_smiles	GLA inh pH 4.5	Rango-impB inh
O=C(Oc1ccc(F)c(F)c1)c1ccc2c(=O)n3c(nc2c1)CCC3	.	2.2%
Cc1cccc(NC(=O)COC(=O)CCc2ccccc2)c1C	.	?
CCC(=O)/C=C1\Sc2ccccc2N1CC	-7.8	0.0%
Cc1cc(OC(=O)C(c2ccccc2)c2ccccc2)c([N+](=O)[O-])c(=O)[nH]1	-2.7	5.7%

# (cont.)
# Screens in order: GLA inh pH 4.5	Rango release inh	miR-21 reporter	Rango-impB inh
Cc1nn(Cc2ccc(F)cc2Cl)c(C)c1[N+](=O)[O-]
  3.7	4.3%	-3.2%	0.4%
CCCN1CCC(NC(=O)Cc2ccc(C)cc2)CC1
  .	-2.2%	-3.2%	?
Cc1ccc(Cn2ncc3c(N4CCN(c5ccccc5C)CC4)ncnc32)cc1
  -2.0	5.7%	8.6%	-1.3%
N/C(=N\OC(=O)COc1cc(Cl)c(Cl)cc1Cl)c1ccncc1
  -0.6	2.2%	-14.7%	1.6%
CC1(c2nnc(-c3ccccc3)o2)CC(c2cccnc2)=NO1 (centres undefined)
  -10.4	7.7%	-2.1%	-5.2%
COCCCNC(=O)CNC(=S)N(Cc1cc(OC)c(OC)c(OC)c1)C1CCCC1
  -1.6	0.1%	-6.8%	-2.8%
O=C(CSc1ccc2nnc(-c3ccncc3)n2n1)Nc1ccc2c(c1)OCCO2
  -7.0	19.0%	-0.9%	-3.1%
CN(Cc1ccccc1)S(=O)(=O)c1csc(C(N)=O)c1
  .	5.2%	6.1%	-0.7%
O=C(CCN1CCCO1)N1CCCC(N2CCN(c3cccc(C(F)(F)F)c3)CC2)C1 (centres undefined)
  .	16.9%	-2.7%	2.4%
Cc1cc(=O)n(C)c(=O)n1CCCCCN1CCCC1
  5.5	3.0%	-8.1%	1.6%
CCN(CC)C(=O)CSc1ncnc2c(-c3cccs3)nsc12
  -2.6	-16.5%	-29.6%	-7.4%
CN=c1scc(-c2ccco2)n1/N=C/c1ccc(O)c(O)c1
  -0.9	?	-49.0%	-2.2%
O=C(Cc1cccc2ccccc12)NC(NC(=S)Nc1ccccc1Cl)C(Cl)(Cl)Cl (centres undefined)
  3.4	-9.6%	1.5%	-3.9%
CC(=O)Nc1ccc(S(=O)(=O)Nc2nc(C)nc3sc4c(c23)CCC4)cc1
  8.6	-20.0%	-8.7%	-4.2%
O=C(C[n+]1ccccc1)c1ccc(NC(=O)c2ccccc2)cc1
  3.8	18.8%	-1.1%	?
